NS1 inh: blocks influenza NS1 protein function; S. cerevisiae slowed by influenza A NS1, growth recovery by OD600; Potency, µM (highest dose often 46.1 µM), for the others: top-dose activity, positive = more growth; 270,000 tested, 0.4% active; AID 2326; further: actives are rising curves; nearly all actives have a fitted effect of over 50% in size
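Recovery from NS1-induced slow growth read by OD600 in budding yeast switched to galactose assay medium (pH 6.0, -URA) at 1:100 dilution. Compound 23 nl per well; the matching strain lacking NS1 serves as control.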
Cruzain inh noDet: blocks cruzain activity in detergent-free assay. P25779. purified cruzain, Z-FR-AMC fluorescence, no detergent. Potency, µM, inactives show max response, negative = inhibition, usual class: inhibitors. 200,000 tested, 2.3% active; active means well fitted curve in the direction sought with a large enough effect; inconclusive means small, poorly fitted or top-dose-only effect, or another doubt; inactive means no such curve, though single readings can be large; an effect the other way counts as inactive or inconclusive;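 further: plate controls were enzyme without inhibitor for no effect and buffer without enzyme for full effect; nearly all actives have a fitted effect of over 40% in size; top concentration of the series not given in the record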
Target sequence (P25779 123-467 limits assumed): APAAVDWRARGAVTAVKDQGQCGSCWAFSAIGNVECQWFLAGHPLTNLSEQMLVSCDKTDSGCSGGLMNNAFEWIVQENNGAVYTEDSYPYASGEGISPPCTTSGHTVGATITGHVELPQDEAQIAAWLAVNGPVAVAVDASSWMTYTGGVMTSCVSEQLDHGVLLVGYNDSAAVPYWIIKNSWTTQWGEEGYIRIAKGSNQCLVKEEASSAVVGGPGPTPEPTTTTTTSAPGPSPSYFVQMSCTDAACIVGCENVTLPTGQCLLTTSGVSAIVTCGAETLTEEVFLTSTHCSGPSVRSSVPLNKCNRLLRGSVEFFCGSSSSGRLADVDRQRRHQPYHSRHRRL
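Purified cruzain at 1.5 nM, pre-incubated 15 min with compound at room temperature in 100 mM sodium acetate pH 5.5, 5 mM DTT, 0.00005% Triton X-100. Reaction started with 2 uM Z-FR-AMC; AMC fluorescence increase over 60 s gives rate.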
SARS PLpro yeast: SARS-CoV PLP inhibition in yeast; Potency, µM (series often up to 32.9 µM), for inactives: at the top dose activity, positive = growth rescue; S. cerevisiae expressing SARS-CoV PLpro, growth rescue; control for the full effect not named in the record; 330,000 tested, 0.19% active; further: 0% is about no effect; nearly all actives have a fitted effect of over 55% in size; growth read by luminescence after 48 h
RE007 growth inh: less growth of the S. pombe RE007 Vpr strain; AID 651644; Potency, µM (highest dose often 92.2 µM), inactives show at the highest dose activity change, negative = less growth; S. pombe RE007 Vpr strain, BacTiter-Glo ATP luminescence, 24 h; control for the full effect not named in the record; 360,000 tested, 0.21% active; active = well fitted falling curve with a large enough effect; inconclusive = small, poorly fitted or top-dose-only effect; inactive = no such curve, though single readings can be large or run the other way;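 further: on the % scale 0 is the no-effect control and ±100 the full control effect; nearly all actives have a fitted effect of over 50% in size; the assay follows cell death caused by Vpr and the record does not say whether a fall means rescue or toxicity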
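Fission yeast RE007 carrying one integrated HIV-1 vpr copy, seeded at OD 0.01 in PMG+AL medium with 23 nL pinned compound. Grown 24 h at 30 degrees; viability read by BacTiter-Glo luminescence after 5 min.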
Cruzain inh Det: inhibitors of Trypanosoma cruzi cruzain with detergent | P25779 | purified cruzain, Z-FR-AMC fluorescence, 0.01% Triton | Potency, µM, for the others: max response, negative = inhibition, most hits filed as inhibitors | 200,000 tested, 0.43% active | AID 1478; active means well fitted curve in the direction sought with a large enough effect; inconclusive means small, poorly fitted or top-dose-only effect, or another doubt; inactive means no such curve, though single readings can be large; an effect the other way counts as inactive or inconclusive;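 further: plate controls were neutral wells for no effect and buffer without enzyme for full effect; nearly all actives have a fitted effect of over 40% in size; top concentration of the series not given in the record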
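Steps: dispense cruzain (1.5 nM final) in acetate buffer pH 5.5 with DTT and 0.01% Triton X-100; pin-transfer compounds; incubate 15 min RT; add Z-FR-AMC (2 uM final); read fluorescence every 30 s, using the 60 s intensity change.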
StopGo reporter: lowers the luciferase signal of an FMDV 2A StopGo reporter. human cells with a luciferase reporter of 2A StopGo recoding; control for the full effect not named in the record. 410,000 tested, 1.2% active. AID 1159524. Potency, µM (top dose mostly 57.9 µM), for inactives: at the highest dose signal change, negative = less light; active = well fitted falling curve with a large enough effect; inconclusive = small, poorly fitted or top-dose-only effect; inactive = no such curve, though single readings can be large or run the other way; tested in HEK293T cells; further: on the % scale 0 is the no-effect control and ±100 the full control effect; nearly all actives have a fitted effect of over 45% in size; luciferase light after 4 h
Lassa entry inh: blocks Lassa virus binding to or entry into cells | Potency, µM (highest dose often 37.9 µM), inactives show at the highest dose activity change, negative = inhibition, actives largely listed as inhibitors | 300,000 tested, 1.2% active | Lassa virus pseudotype entry inhibition, cell reporter; control for the full effect not named in the record; active means well fitted inhibition curve with a large enough effect; inconclusive means small, poorly fitted or top-dose-only effect, or effect the other way; inactive means flat fitted curve, though single readings scatter; tested in HEK293 cells; further: on the % scale 0 is the no-effect control and ±100 the full control effect; nearly all actives have a fitted effect of over 50% in size; luciferase read-out
Marburg entry inh: blocks Marburg virus binding to or entry into cells. AID 540276. 300,000 tested, 1.8% active. Marburg virus pseudotyped entry inhibition, cell reporter; control for the full effect not named in the record; about a third of the inactives were read at about 46 µM. Potency, µM (top dose mostly 37.8 µM), for the others: at the top dose activity change, negative = inhibition, most hits filed as inhibitors; active = well fitted inhibition curve with a large enough effect; inconclusive = small, poorly fitted or top-dose-only effect, or effect the other way; inactive = flat fitted curve, though single readings scatter; tested in HEK293 cells; about a fifth of its hits are not listed in these tables; further: on the % scale 0 is the no-effect control and ±100 the full control effect; luciferase read-out
An asterisk follows results filed as active; ? = inconclusive; · = not tested or not shown; & = joins results of further samples; [ ] = remark or other dose. Unless noted, the call rests on the fitted dose curve; in most records, active means well fitted rising curve with a large enough effect; inconclusive means small, poorly fitted or top-dose-only effect; inactive means no such curve, though single readings can be large or run the other way. Potency means the concentration at half of the fitted maximal effect. This is a random part of the collection. About 4.6% of those tested had a hit in this group.

Compound | NS1 inh | Cruzain inh noDet | SARS PLpro yeast | RE007 growth inh | Cruzain inh Det | StopGo reporter | Lassa entry inh | Marburg entry inh
O=C1CN(C(=O)c2ccc(F)cc2)c2ccccc2N1 | -8% | · | -3% | 6% | · | -14% | · | ·
COc1ccc(CN2CCN(Cc3c[nH]c4ccccc34)CC2CCO)cc1C (stereo not drawn) | ? | · | 2% | -14% | · | -24% | · | ·
Cc1ccc(CN(Cc2ccco2)C(=O)c2ccccc2Cl)o1 | · | 10% | · | · | -2.5% | -13% | 2%[46.1 µM] | 6%[46.1 µM]
CC(=O)O[C@H]1CC[C@@]2(C)C(=CC(=O)C3C2CC[C@@]2(C)C3C[C@H](OC(C)=O)[C@@H]2OC(C)=O)C1 (stereo partly drawn) | · | · | 11% | 11% | · | 17% | 13%[46.1 µM] | 0%[46.1 µM]
CC(NC(=O)c1cccs1)C(c1cccs1)N1CCN(Cc2ccccc2)CC1 (stereo not drawn) | -3% | 24% | 2% | -4% | 0.4% | · | ? | ?
COc1cc(CNCCCCO)ccc1OCc1ccccc1F | -3% | · | 0% | 4% | · | 10% | -8%[46.1 µM] | ?
c1coc(-c2cc(C3CCNCC3)[nH]n2)c1 | · | · | 0% | -10% | · | -16% | 2% | ?
COC(=O)C1=C(CN2CCc3ccccc32)NC(=O)NC1c1cc(C)ccc1C (stereo not drawn) | ? | ? | -7% | 10% | -0.9% | -3% | ? | -28%
O=C(NC1CCCCC1)C(c1ccco1)N(C(=O)c1csnn1)c1cccc(F)c1 (stereo not drawn) | 4% | · | 3% | 2% | · | 7% | 2% | -24%[46.1 µM]
COC(=O)C1=C(C)N(C)C(=O)NC1c1cc(Cl)cc(Cl)c1OC (stereo not drawn) | -11% | 6% | -7% | 4% | -0.4% | -23% | -10% | -19%
CC(C)(C)C1=CC(O)(c2ccccc2)C=C(C(C)(C)C)C1=O | -42% | · | -10% | 8% | · | ? | · | ·
Cc1cccc(OCC(=O)NCCNC(=O)c2ccncc2)c1 | 13% | · | -2% | -20% | · | 18% | -1% | -10%[46.1 µM]
CC1CCC2(CC1)NC(=O)N(NC(=O)c1ccc(OC(C)C)cc1)C2=O (stereo not drawn) | · | · | -2% | -25% | · | -30% | -2% | 17%
O=C(N/C(=C/c1cccc([N+](=O)[O-])c1)C(=O)N1CCCCCC1)c1cccs1 | 6% | 8% | -12% | 7% | -6.1% | 16% | -10% | 16%
O=C(CNC(=O)c1ccc(Cl)cc1)OCc1cc(=O)n2nc(C3CC3)sc2n1 | · | -1% | · | · | -2.6% | -22% | 19%[46.1 µM] | ·
CCCCOc1ccc(C(=O)Oc2cc(C)[nH]c(=O)c2[N+](=O)[O-])cc1 | -67% | · | -2% | -25% | · | -4% | · | ·
COc1ccccc1Nc1ncnc2c1cnn2-c1cccc(C)c1 | -5% | -5% | 0% | -3% | -8.2% | 41%[activator] | -2% | 20%&20%
CC(C)OCCCNC(=O)Nc1cccc2ccccc12 | -3% | · | 1% | 3% | · | -5% | · | ·
COc1cc2c(cc1OC)CN(C(=S)Nc1ccccc1Cl)CC2 | · | · | -1% | 7% | · | 0% | ? | ?
Cc1cc(C(=O)NP(=O)(N2CCOCC2)N2CCOCC2)c(C)n1-c1ccc(Br)cc1 | -9% | ? | 14% | -2% | -1.1% | -2% | -18%[46.1 µM] | ?
Cc1ccc(NC(=O)CCSc2nnc3ccccn23)cc1 | -4% | 1% | -1% | 9% | 1.4% | 39%[activator] | 6% | ?
Cc1ccc(CNC(=O)c2c3c(nc4ccccc24)C(=O)N(C2CCCCC2)C3)cc1 | · | -7% | · | · | -6.5% | -19% | ? | ·
CC(C)c1nnc(SCC(=O)N2CCc3ccccc32)n1N | · | · | 0% | -11% | · | -3% | 11% | -2%
N#CCC(=O)N/N=C/c1ccccc1Cl | -2% | · | 0% | 4% | · | 1% | · | -1%[46.1 µM]
COc1ccc(N2CCN(C(=O)CCc3ccc(S(=O)(=O)NCC(C)C)cc3)CC2)cc1 | 23% | ? | -21% | 15% | 3.2% | -5% | ? | ?
COc1ccc(Cl)cc1NC(=O)CN(C)C(=O)c1cc2c(s1)CCCC2 | · | · | -1% | 23% | · | -29% | 0% | ?
O=C(O)CSc1nnc(Nc2ccccc2)n1-c1ccccc1 | 10% | · | -2% | 18% | · | 1% | -1% | 21%[46.1 µM]
CCC(CC)C(=O)Nc1cc(=O)n(C)c(=O)n1C | -2% | 13% | 2% | 3% | 2.4% | -13% | · | ·
COc1ccc(Cl)cc1NC(=O)C/C(C)=N/NC(=O)COc1ccc(C)cc1 | -2% | · | -2% | -10% | · | -9% | 18% | -16%
CCN(CC(=O)Nc1c(F)cccc1F)C(=O)CN1c2cccc3cccc(c23)S1(=O)=O | · | · | 0% | 5% | · | -7% | 2% | -14%[46.1 µM]
O=C(O)C(CCC(C(=O)O)c1ccccc1)c1ccccc1 (stereo not drawn) | · | · | · | 12% | · | 7% | -18%[46.1 µM] | ?
Cn1c(CO)cnc1S(=O)(=O)Cc1c(Cl)cccc1Cl | -1% | · | 0% | 20% | · | -2% | 0%[46.1 µM] | -1%[46.1 µM]
CC(=O)NC(c1ccc(Cl)cc1Cl)c1ccc2cccnc2c1O (stereo not drawn) | -104% | · | ? | -12% | · | 0% | · | ·
CC(C)(C)n1nnnc1CN(Cc1ccc(F)cc1)Cc1ccco1 | -13% | 3% | -7% | -9% | 0.1% | 0% | -17% | -5%
Cc1n[nH]c(=S)n1/N=C/c1ccccc1 | 10% | 10% | -19% | -5% | -2.6% | -17% | 2% | ?
CN(C)CCn1cnc2ccccc21 | 1% | · | 1% | 15% | · | -2% | · | ·
O=C(c1ccccc1)N1CCc2[nH]nc(-c3ccccc3)c2C1 | 0% | · | -4% | 13% | · | -24% | · | ·
CCCc1nn2c(=O)cc(COC(=O)c3ccc4c(c3)OCO4)nc2s1 | · | -14% | · | · | -1.3% | -1% | -6%[46.1 µM] | ·
O=C(COC(=O)c1ccccc1SCC(=O)N1CCCC1)NC1CCCCC1 | · | · | 1% | -6% | · | 27% | 0% | ?
Cc1nc(NS(=O)(=O)c2cccs2)c2c3c(sc2n1)CCC3 | 5% | -11% | 7% | -6% | -6.0% | -16% | 3% | -3%&-2%
COc1ccc(C(O)P(=O)(OC(C)C)OC(C)C)cc1 (stereo not drawn) | 3% | · | -1% | 0% | · | -1% | · | ·
CC1CCc2cc(F)ccc2N1C(=O)c1ccc2c(c1)OCO2 (stereo not drawn) | -7%[9.22 µM] | 2% | 3% | -14% | -1.4% | -26% | ? | ?
CC(C)NC(=O)N(O)C1N(C(C)C)C(=O)N(Cc2ccc3c(c2)OCO3)C1(C)C (stereo not drawn) | 0% | · | 2% | -29% | · | 28% | 11% | 3%
CCN1CCN(CC(O)COC(c2ccccc2)c2ccccc2)CC1 (stereo not drawn) | · | · | 0% | 12% | · | 7% | 7%[46.1 µM] | 9%[46.1 µM]
COc1ccccc1-n1cnnc1SCC(=O)Nc1cccc(S(N)(=O)=O)c1 | 7% | · | 3% | 2% | · | 0% | 2% | 11%
COc1ccc(NC(=O)NCCN2CCc3ccccc3C2)cc1 | 4% | 6% | 11% | -25% | -1.3% | 5% | 1% | ?
CCC(C)(C)NC(=O)C(c1ccco1)N(C(=O)Cn1nnc2ccccc21)c1ccc2c(c1)OCO2 (stereo not drawn) | -7% | 3% | 8% | 7% | -2.2% | 28% | ? | ?
Cc1cccc(NC(=O)CSc2nnc(CNC(=O)c3c(F)cccc3Cl)o2)c1C | · | -5% | · | · | -7.0% | -3% | -24%[46.1 µM] | -8%[46.1 µM]
O=C1C=CC(=O)N1c1ccc2c(c1)C(NC(=O)C(F)(F)F)c1ccccc1-2 (stereo not drawn) | · | · | · | 40µM* | · | ? | -21% | -34%
COc1ccccc1NC(=S)N1CCN(c2ncccn2)CC1 | -2% | · | 1% | 6% | · | -6% | -13% | 28%[46.1 µM]
NC(=O)C1(N2CCCCC2)CCN(C(=O)c2ccc(C#CC3(O)CCCCC3)cc2)CC1 | 1% | 7% | -5% | 15% | 7.5% | -13% | 1% | ?
Cc1ccc(CSc2nnnn2C)cc1 | 0% | -5% | 10% | 17% | 4.7% | 26% | 12% | 1%
COc1ccc(CCCc2nnc(SCc3nc4ccccc4c(=O)[nH]3)n2C)cc1 | · | · | 6% | -14% | · | -25% | 12% | 1%[46.1 µM]
CCn1cc(C(=O)NCc2cccc(F)c2)c(=O)c2cc(F)c(N3CCN(C(=O)c4ccco4)CC3)cc21 | 20% | ? | 10% | 23% | -5.6% | 16µM* | ? | ?
Nc1nnc(SCc2ccccc2Cl)s1 | -53% | 0% | · | 17% | 2.9% | 51%[activator] | ? | -3%&-3%
CCCCOC(=O)C(C)c1c(C)[nH]c(=S)[nH]c1=O (stereo not drawn) | 5% | -7% | 13% | -3% | 4.1% | -18% | 0% | 4%
Cc1ccc(OCc2cc(C(=O)N(C)CCc3ccccn3)no2)cc1C | -14% | · | -3% | -3% | · | 6% | · | ·
COc1ccc(OC)c(NC(=O)C2CC(C)=C(C)CC2C(=O)O)c1 (stereo not drawn) | ? | -8% | -6% | 3% | 5.3% | 18% | -5% | 19%
COC(=O)/C(C#N)=C/c1c(-c2ccccc2)nc2n1CCS2 | 0% | · | 0% | -22% | · | 15% | -1%[46.1 µM] | -5%[46.1 µM]
COc1ccc(CC2(C)OC(c3ccccc3)=NN2C(C)=O)cc1 (stereo not drawn) | -14% | -11% | 2% | -14% | -3.0% | -16% | ? | 8%
COc1ccc(NS(=O)(=O)c2ccc(C)c(C(=O)NNC(=O)c3ccccc3O)c2)cc1 | · | · | 4% | 9% | · | -7% | ? | -25%
CCc1ccc(NC(=O)NCCc2c(C)nn(C)c2C)cc1 | · | -3% | · | · | -1.0% | 0% | ? | ·

From PubChem BioAssay
